High-throughput results deposited in PubChem BioAssay by National Center for Advancing Translational Sciences (NCATS).
A647 autofl: qHTS Assay for Spectroscopic Profiling in A647 Spectral Region; 59,000 tested, under 10 active; AID 592, 2007; Compound fluorescence, A647 channel (570/671 nm), Tris buffer; max dye-equivalent concentration, M; active means above 1 µM dye equivalent; inconclusive means 0.1 to 1 µM; inactive means 0.1 µM or less;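 further: values scaled relative to a standard on each plate; highest value over a series up to 38 µM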
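Each compound's intrinsic fluorescence at 570 nm excitation and 671 nm emission is measured across its concentration series in 100 mM Tris, pH 8.0, after 15 min at room temperature, and reported relative to an A647 curve.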
TSHR ag: qHTS Assay for Agonists of the Thyroid Stimulating Hormone Receptor. Thyrotropin receptor (Homo sapiens), P16473. HEK293-CNG-TSHR cells (CNG channel as cAMP sensor), membrane potential dye, cAMP. Potency, µM (titrated, usually from 57.1 µM), without a hit: at the highest dose activation, most hits filed as activators. hit rate 0.48% among 73,000. AID 926, 2007; active = well fitted activation curve of enough size with the parental cells flat; inconclusive = any curve in the parental cells; inactive = parental cells flat and receptor cells flat or falling; further: potency means the concentration at half of the fitted maximal effect; % of control where 0% means no effect; weak receptor curves with flat parental cells got no call and are not listed
Target sequence (P16473 whole entry, looked up): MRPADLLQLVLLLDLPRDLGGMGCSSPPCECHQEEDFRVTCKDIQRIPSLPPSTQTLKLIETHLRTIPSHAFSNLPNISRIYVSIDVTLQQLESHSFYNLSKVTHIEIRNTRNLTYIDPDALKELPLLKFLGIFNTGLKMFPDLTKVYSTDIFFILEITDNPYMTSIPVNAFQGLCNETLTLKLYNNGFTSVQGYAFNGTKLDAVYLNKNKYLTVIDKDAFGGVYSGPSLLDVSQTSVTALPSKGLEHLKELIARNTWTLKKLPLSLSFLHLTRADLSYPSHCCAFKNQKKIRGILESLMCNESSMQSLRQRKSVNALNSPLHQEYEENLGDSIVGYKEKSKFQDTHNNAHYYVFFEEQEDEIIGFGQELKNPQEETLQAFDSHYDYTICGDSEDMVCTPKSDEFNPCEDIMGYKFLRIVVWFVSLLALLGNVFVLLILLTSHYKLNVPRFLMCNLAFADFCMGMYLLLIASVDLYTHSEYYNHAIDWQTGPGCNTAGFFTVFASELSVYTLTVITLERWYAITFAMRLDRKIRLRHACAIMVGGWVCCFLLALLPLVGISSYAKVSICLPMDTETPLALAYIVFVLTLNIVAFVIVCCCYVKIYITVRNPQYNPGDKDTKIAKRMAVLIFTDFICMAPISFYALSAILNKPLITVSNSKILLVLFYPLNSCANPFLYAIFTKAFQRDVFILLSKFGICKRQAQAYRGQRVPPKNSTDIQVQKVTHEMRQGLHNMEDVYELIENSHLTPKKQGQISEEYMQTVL
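cAMP rise detected as CNG-channel membrane depolarization by fluorescent dye (emission 590 nm), 30 min after compound, following 60 min dye loading containing 100 uM RO 20-1724 at room temperature. Cells: TSHR/CNG HEK 293, with parental CNG HEK 293 as control.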
A488 fluor: qHTS Assay for Spectroscopic Profiling in A488 Spectral Region; compound autofluorescence, A488 spectral region, dye equivalency; stronger effect = higher value; max dye equivalency, M; hit rate 0.1% among 59,000; active = above 10 nM dye equivalent; inconclusive = 1 to 10 nM; inactive = 1 nM or less; about half of its hits are not listed in these tables;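 further: highest value over a series up to 38 µM; compound alone in buffer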
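Compounds pin-transferred into 100 mM Tris buffer, pH 8.0, incubated 15 min at room temperature, then imaged with 480 nm excitation/540 nm emission filters. Fluorescence converted to Alexa 488 dye-equivalent concentration via an on-plate six-point A488 standard curve.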
Resorufin autofl: qHTS Assay for Spectroscopic Profiling in Resorufin Spectral Region. Compound fluorescence, resorufin region 547/598 nm, buffer; stronger effect = higher value. max dye-equivalent concentration, M. hit rate 0.04% among 59,000; active = above 10 nM dye equivalent; inconclusive = 1 to 10 nM; inactive = 1 nM or less; a few of its hits are not listed in these tables; further: highest value over a series up to 38 µM
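Tris 100 mM pH 8.0; compound added, 15 min RT; CCD imager read, ex 547 nm/em 598 nm; signal normalized to resorufin standard curve (six concentrations per plate) as dye-equivalent concentration.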
AID923: qHTS Assay for Allosteric/Competitive Inhibitors of Caspase-1: Spectroscopic Profiling in AFC Spectral Region; Potency, µM (top dose mostly 57.5 µM), for the others: at the top dose fluorescence increase, actives largely listed as activators; compound fluorescence, AFC spectral region (405/520 nm); almost no hit is shown here; AID 923, 2007; hit rate 1.1% among 75,000; active means well fitted activation curve with a large enough effect; inconclusive means small, poorly fitted or top-dose-only effect;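 further: potency means the concentration at half of the fitted maximal effect; 0% is about no effect; scaled to a free AFC standard on each plate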
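Compound autofluorescence profiled at 405 nm ex/520 nm em during kinetic caspase 1 run (50 nM enzyme, 5 uM Ac-WEHD-AFC, HEPES pH 7.5, 10 mM DTT). Titration up to 57 uM; baseline from regression intercept, normalized to AFC standard curve.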
* = called active by the depositor; i = inactive; ? = inconclusive; / = not tested or not shown; & = joins results of further samples; [ ] = dose if it differs, or a comment. The list is partial; rates above refer to the full screens.

compound	A647 autofl	TSHR ag	A488 fluor	Resorufin autofl	AID923
O=C(Nc1c(C(=O)N2CCOCC2)cnn1-c1ccccc1)c1ccccc1	/	-0.9%[11.4 µM]	/	/	-1.2%
CSC(=O)CC(=O)NC(=O)c1ccccc1	2.5e-08	-4.6%	i	i	3.6%
COc1ccccc1N1C(=O)C2CC=CC(C)C2C1=O (centres undefined)	/	-5.3%[11.4 µM]	/	/	-1.8%
CCOC(=O)N1CCC(N2Cc3cccc(C(=O)Nc4ccc(OC)c(OC)c4)c3C2=O)CC1	/	-3.9%	/	/	2.1%
CCC(C)[C@H](NC(=O)N1CCCC1)C(=O)O (some centres undefined)	2.67e-08	22.2%	i	i	-0.9%
COc1ccc2cc(CCC(C)=O)ccc2c1	3.14e-08	-0.8%[25.6 µM]	i	i	0.1%
C=CCn1c(=O)c(C(=O)NCCNCC)c(O)c2ccccc21	2.19e-08	?	i	i	-1.4%
CCC(=O)N1c2ccccc2[C@@H](N(C(C)=O)c2ccccc2)C[C@H]1C	1e-09	13.4%	i	i	-1.5%
COc1cc2c(cc1OC)CN(C(=O)CCCN1C(=O)c3ccccc3C1=O)CC2	1.3e-09	22.9%	i	i	0.6%
Cn1c(SC/C=C/c2ccccc2)nnc1-c1cnccn1	3.46e-08	/	i	i	-0.8%
NC(=O)C1CCN(c2nc(-c3ccccc3)nc3c2oc2ccccc23)CC1	1e-09	/	i	i	2.8%
O=C(CCn1c(=O)c2sccc2n(Cc2cc(=O)n3ccccc3n2)c1=O)NCc1ccco1	1e-09	-1.1%	i	i	1.7%
CC1=C(C(=O)OCc2ccc3c(c2)OCO3)C(c2ccccc2)NC(=O)N1 (centres undefined)	/	5.7%	/	/	-1.8%
COC(=O)c1c(NC(=O)CN2CCN(c3ccccc3OC)CC2)c2c(C)cccc2n1C	2.3e-09	14.0%	i	i	0.9%
CCCC(=O)C1=C(O)C(C(=O)OC)C(C)(C)CC1=Nc1ccncc1 (centres undefined)	/	14.6%	/	/	1.8%
N[C@@H]1CONC1=O	3.75e-08&1e-09&5e-09&3.6e-09&4.1e-08	?	i	i	-1.4%[25.7 µM]
CCCN1Cc2cccc(C(N)=O)c2C1=O	1e-09	-0.1%[11.4 µM]	i	i	-1.5%
O=C(NCc1ccccn1)c1cn(CCc2ccccc2)nn1	2.58e-08	1.3%	i	i	3.4%
CC(=O)c1cccc(NC(=O)c2cc3ccccn3n2)c1	/	3.5%	/	/	-2.2%
COCCn1c(=NC(=O)CSCC(=O)Nc2cc(C)on2)sc2cc(C(=O)OC)ccc21	2.02e-08	4.6%	i	i	0.2%

The listing continues:
compound	A647 autofl	TSHR ag	A488 fluor	Resorufin autofl	AID923
Cc1nc(N)[nH]c(=O)c1CCC(=O)OCC(C)C	1.1e-09	-2.6%	i	i	-0.1%
CCCCOc1ccc(CSc2n[nH]c(C)n2)cc1	1e-09	/	i	i	-0.4%
Cn1nnc(NC(=O)c2ccc(C(C)(C)C)cc2)n1	1.4e-08	-2.7%	i	i	0.6%
CCCCNC(=O)c1ccccc1NC(=O)c1ccccc1N(C)S(C)(=O)=O	4.2e-09	-0.3%	i	i	1.5%
C=C(CC(=O)O)C(=O)O (tested in a mixture with another compound)	1e-09	-6.2%[11.4 µM]	i	i	-0.8%[11.5 µM]
CCn1c(SCCOc2ccc(Cl)cc2)nnc1-c1cccs1	1e-09	?	i	i	0.0%
Cc1ccc(C(C(=O)NCc2ccco2)N(CCc2ccccc2)C(=O)Cn2nnc3ccccc32)o1 (centres undefined)	2.88e-08	?	i	i	0.1%
CCC(C)NC(=O)COc1ccc(S(=O)(=O)N2CCOCC2)cc1 (centres undefined)	1e-09	-0.6%	i	i	-0.6%
Cc1cccc(N2CCN(C(c3cccs3)c3nnnn3C(C)(C)C)CC2)c1C (centres undefined)	1.86e-08	?	i	i	-0.1%
O=C(CCc1ccc(O)cc1)c1c(O)cc(O)cc1O	1e-09&1e-09	-30.1%[inhibitor]	i	i	-1.8%&-0.5%&0.1%
COc1ccc(-c2cc(C(=O)NCc3cccnc3)no2)cc1OC	1e-09	-3.0%[11.4 µM]	i	i	-0.4%
O=C(NCC1CCS(=O)(=O)C1)NCC1CCS(=O)(=O)C1 (centres undefined)	2.68e-08	2.4%	i	i	-1.2%
c1ccc2oc(SCc3cn4ccccc4n3)nc2c1	3.25e-08	?	i	i	0.8%
COCCN(C(=O)Nc1ccc(OC)cc1OC)C1CCN(C(C)C)CC1	1.7e-09	4.3%	i	i	-2.2%
CCOC(=O)N1CCN(Cc2nc3c(c(=O)n(C)c(=O)n3C)n2CCCc2ccccc2)CC1	3.96e-08	?	?	?	1.6%
COc1ccccc1-c1nnc2sc(COc3ccc(Cl)cc3Cl)nn12	1e-09	?	i	i	0.6%
Cc1cc(NC(=O)c2cc(-c3ccco3)on2)n(-c2ccccc2)n1	1.75e-08	13.2%	i	i	0.1%
COc1cc(C(=O)Nc2ccc(NC(=O)C3CC3)nc2)cc(OC)c1OC	1e-09	-2.2%	i	i	0.2%
CC1(C)CC(=O)C2=C(C1)Nc1ncnn1C2c1ccccn1 (centres undefined)	3.04e-08	-3.2%	i	i	0.1%
COc1cccc(-c2nnc(Nc3nc4c(F)cccc4s3)o2)c1	6.1e-09	-5.2%	i	i	1.5%

(more compounds)
compound	A647 autofl	TSHR ag	A488 fluor	Resorufin autofl	AID923
CCOc1cc(C2C(C(=O)c3ccco3)=C(O)C(=O)N2CCc2ccccc2)ccc1O (centres undefined)	4.46e-08	/	i	i	-1.0%
CCOC(=O)c1cnc(SCc2nc(N)nc(Nc3ccc(F)cc3)n2)nc1N	2.14e-08	0.4%	i	i	0.7%
O=C(CCN1C(=O)c2ccccc2C1=O)NCCC1=CCCCC1	6.4e-09	-9.0%	i	i	-1.1%
CN(C)c1nc(N)nc(Nc2ccccc2C#N)n1	/	8.7%	/	/	1.8%
COc1ccc(OC)c(-c2cc(C(=O)Nc3c(C)nn(Cc4ccc(Cl)cc4)c3C)no2)c1	3.9e-09	/	i	i	1.6%
Cn1c(CCNC(=O)c2ccco2)nc2cc(NS(=O)(=O)c3ccc(Cl)cc3)ccc21	1.72e-08	-3.4%	i	i	-1.8%
Brc1ccccc1-c1nnc(-c2cccnc2)o1	8.1e-09	3.2%	i	i	-0.4%
CC(=O)N(CCCc1ccc(C(C)(C)C)cc1)CCCN(C)C	/	8.6%	/	/	1.0%
CCOc1ccc(OCC)c(NC(=O)C2CCCN(S(=O)(=O)c3cccs3)C2)c1 (centres undefined)	4.9e-09	1.0%	i	i	-0.7%
N#Cc1ccc(OCC(=O)N2CCN(S(=O)(=O)c3cccs3)CC2)cc1	1e-09	6.8%	i	i	-1.3%
CC(N=c1ccccn1C(=O)Nc1ccc(F)cc1)c1ccco1 (centres undefined)	2.52e-08	2.6%	i	i	-0.1%
CCOc1ccccc1NC(=O)C1CCCN(C(=O)NCc2ccccc2)C1 (centres undefined)	6.05e-08	5.6%	i	i	-0.8%
CCOc1ccc(NC(=O)CN2CCN(CC(=O)Nc3cc(OC)cc(OC)c3)CC2)cc1	2.3e-08	5.3%	i	i	0.0%
CN1CCCCc2c1nc1c(c2N)CCCC1	3.55e-08	30.2%	i	i	1.0%
CC(=O)N1[C@H](Cc2ccccc2)C=C[C@]1(C)C(=O)NCCN1CCOCC1	/	-2.9%	/	/	-0.4%
C=CCn1c(SCC(=O)Nc2ccc3c(c2)OCO3)nc2ccccc2c1=O	2.27e-08	?	i	i	0.0%
CCOC(=O)c1sc(N)c(C#N)c1COC(=O)CNC(=O)c1ccccc1	9.1e-09	-1.8%	i	i	1.0%
COc1nc(-c2ccccc2)ccc1-c1noc(-c2ccccc2)n1	1e-09	19.1%	i	i	-0.9%
Cc1ccccc1Cn1ccc(NC(=O)c2cnn3c(C(F)(F)F)cc(-c4ccco4)nc23)n1	4.21e-08	?	i	i	0.2%
O=C(Cn1nnc(-c2ccccc2Cl)n1)N1CCN(S(=O)(=O)c2ccc(Cl)cc2)CC1	1e-09	0.8%	i	i	0.3%

(next part)
compound	A647 autofl	TSHR ag	A488 fluor	Resorufin autofl	AID923
c1ccc(CCNc2ccc3nncn3n2)cc1	/	-0.2%	/	/	1.3%
CCn1c(CSc2nnc(-c3cccnc3)n2-c2ccccc2C)nc2cc(C(=O)O)ccc21	?	-4.4%	i	2.22e-07M*	7.8%
CN1CCN(CC(O)COCc2ccc3c(c2)OCO3)CC1 (centres undefined)	1e-09	?	i	i	-0.5%
CCCCC(=O)Nc1ccc2oc(-c3cccnc3)nc2c1	2.5e-08	-4.6%	i	i	1.4%
CC(=O)Nc1ccc2c(c1)n(C)c(=O)n2C	1e-09	-1.0%	i	i	0.3%
Cc1ccc(NC(=O)Cn2nc(C)c3ccccc3c2=O)cc1	1e-09	/	i	i	/
O=c1cnc2cnc(OCc3ccccc3)nc2n1Cc1ccc(F)cc1	2.55e-08	?	i	i	1.0%
O=C(NCCN1CCOCC1)c1cccc(Cl)c1	1e-09	-0.3%	i	i	-1.5%
CC1(C)Cc2c(c(-c3ccco3)nc3n[nH]c(N)c23)CO1	4.02e-08	1.3%	i	i	3.5%
COc1ccc(C(=O)Nc2ccccc2C(=O)NCc2ccco2)cc1OC	7.5e-09	/	i	i	0.8%
Cc1cc(C)cc(C(=O)/C=C2\NC(=O)CS2)c1	1.7e-08	-1.2%	i	i	-1.2%
CCCc1cc(=O)oc2cc3oc(C)c(C)c3cc12	1.2e-09	?	i	i	0.6%
O=C(O)[C@@H]1C[C@@H](C(=O)O)N1	/	3.6%	/	/	-4.2%
COc1cc(-c2noc(-c3ccccc3C(=O)NCc3ccco3)n2)cc(OC)c1OC	1e-09	?	i	i	-0.5%
COc1ccc(-c2onc3ccc(Cl)cc23)cc1OC	6.4e-09	?	i	i	10.8%
CCc1c2c(nc3ccc(OC)cc13)OC(C)C2 (centres undefined)	/	7.0%	/	/	-1.7%
CCn1cc(C2=NOC(C(=O)O)C2)c(C)n1 (centres undefined)	/	12.5%	/	/	0.7%
COc1cc(OC)cc(-c2nnc(SCC(=O)N(C(C)C)C(C)C)o2)c1	1e-09	25.1µM*	i	i	1.9%
O=C(CN1C(=O)CCC1=O)Nc1ccc(Br)cc1	2.85e-08	-1.1%	i	i	-1.1%
O=S(=O)(NCCc1cn2ccccc2n1)c1ccc(F)c(C(F)(F)F)c1	/	-7.0%	/	/	-5.4%

One compound at a time, as listed above. Values in the order: A647 autofl, TSHR ag, A488 fluor, Resorufin autofl, AID923
CCc1c2c(nc3ccc(OC)cc13)OC(C)C2 (centres undefined) across the screens: /, 7.0%, /, /, -1.7%
Cc1nc(N)[nH]c(=O)c1CCC(=O)OCC(C)C across the screens: 1.1e-09, -2.6%, i, i, -0.1%
